# From PubChem
# Measles inh: inhibitors of measles virus growth in infected cells; z-score (concentration not given with the values); infected Vero cells, GFP fluorescence, 64 h; hits give low values; 33,000 tested, 0.1% active;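 active means z-score under -3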;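 further: score is relative to mean and SD of the compound wells of a plate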
# * hit, by the source's call.
SMILES,Measles inh
CCCOc1ccc(-c2nc3c(C(=O)OC)c[nH]n3c2NC2CCCCC2)cc1OC,-0.81
COc1cccc(-n2c(=O)c3c(C)c(C)sc3n(CC(=O)OCc3ccccc3)c2=O)c1,2.2
CN(c1ccccc1)S(=O)(=O)c1ccc(C(=O)Nc2nccs2)cc1,1.2
CCOc1ccc(CNC(=O)c2nn(-c3ccc(C)cc3)c(=O)c3c2c2ccccc2n3C)cc1,0.5
C=CCN(CC=C)Cc1c(C)[nH]c2ccc(OC)cc2c1=O,-0.13
O=C(NCc1ccco1)c1cc(-c2ccc(Cl)cc2)on1,-1.3
Cc1cccc2c1NC1(CCCCC1)CC2C (configuration not stated),0.32
O=C(CSc1cn(Cc2ccccc2Cl)c2ccccc12)NC1CCCCC1,1.1
CCN(CC)S(=O)(=O)c1ccc(F)c(C(=O)Nc2ccc(C(C)C)cc2)c1,-0.52
CSc1nnc2c(n1)OC(c1c(C)cc(C)cc1C)Nc1ccccc1-2 (configuration not stated),-0.6
CCOC(=O)c1cnc2cc(-c3ccccc3)nn2c1-c1ccccc1,-0.98
CCOC(=O)c1c(NC(=O)c2ccc(S(=O)(=O)N3CC(C)OC(C)C3)cc2)sc(C)c1C (configuration not stated),0.25
COc1ccc(C(=O)Nc2ccc(NC(=O)c3ccccc3)c(C)c2)cc1[N+](=O)[O-],1.9
C(=C1c2ccccc2-c2ccccc21)c1ccccn1,-1.5
O=C(Oc1cccnc1)c1ccc(F)cc1,-0.66
Cc1cccc(CCNc2nc3c(c(=O)n(C)c(=O)n3C)n2C)c1,1.7
O=C(Nc1ccc(Br)cc1)c1sc2ccccc2c1Cl,-0.33
Cc1cc(NS(=O)(=O)c2ccc(NC(=O)c3ccc(Cl)cc3)cc2)no1,-0.92
Cc1ccc(-c2c3c(nc4sc(C(=O)Nc5cccc(Br)c5)c(N)c24)CCCC3)o1,-0.34
O=C(O)c1cccc(NSc2ccccc2[N+](=O)[O-])c1,-0.01
CCOC(=O)c1c(NC(=O)c2ccc(C)cc2)sc(C(C)=O)c1C,1
COc1ccc(-n2nc(C(=O)NCC(=O)N(C)c3ccc(Cl)cc3)c3ccccc3c2=O)cc1OC,-0.28
Cn1c(=O)[nH]c(=O)c2c1nc(N1CCOCC1)n2CCO,0.39
COc1ccc(NC(=O)c2sc(=S)n(-c3ccccc3)c2N)cc1OC,1.5
Cc1nc(NC(=O)Nc2ccc(Cl)cc2)sc1CC(Cl)(Cl)Cl,-0.11
O=C1CCCC2=C1C(c1cccc(O)c1)Nc1ccc3ccccc3c12 (configuration not stated),-1.6
Cc1cc2ncn(CC(O)COC3CCCCC3)c2cc1C (configuration not stated),0.63
CCOC(=O)c1cnc2ccc(OCC)cc2c1Nc1cccc(C(F)(F)F)c1,-0.12
Cc1cc(-c2nc(-c3ccc([N+](=O)[O-])cc3)no2)ccc1[N+](=O)[O-],0.59
COc1cc([N+](=O)[O-])cc2c(CCN)c(C(=O)O)[nH]c12,-0.72
CCCCS(=O)c1sc2nc(-c3cccs3)cc(-c3ccccc3)c2c1N (configuration not stated),2.2
Cc1nn2c(C(F)(F)F)cc(-c3ccc(F)cc3)nc2c1-c1ccccc1,-0.9
O=C(c1ccccc1)N(Cc1ccccc1)c1ccccn1,-0.6
CCC1CCCCN1S(=O)(=O)c1ccc(C(=O)N=c2sc3cc(F)ccc3n2C)cc1 (configuration not stated),-0.23
COc1ccc(Oc2nnc(-c3ccc(C)cc3)c3ccccc23)cc1,0.32
COc1ccc(OC)c2[nH]c(=O)c(CCNC(=O)Cc3cccc(C)c3)cc12,-0.18
CCN(CC)CCCNC(=O)c1cc(-c2ccc(C)c(C)c2)nc2ccccc12,-0.32
COc1ccc2cc3cc(C(=O)NCC4COc5ccccc5O4)sc3nc2c1 (configuration not stated),-0.58
O=C(CCn1c(=O)c2ccccc2n(Cc2cccc([N+](=O)[O-])c2)c1=O)NC1CCCC1,0.31
COC(=O)C1=C(C)NC(=S)N(C(C)=O)C1c1ccc(Cl)cc1 (configuration not stated),1.8
CSc1nnc2c(n1)OC(c1cccc(O)c1)Nc1ccccc1-2 (configuration not stated),-0.74
Cn1cc(C(=O)NCCCN2CCCCCC2)c(=O)c2cc(S(=O)(=O)N3CCCC3)ccc21,-0.01
Nc1c(C(=O)Nc2ccccc2)sc2nc3c(cc12)CCCC3,-0.29
CC12CCC(C(=O)N(c3nc4c(s3)CCCC4)C1=O)C2(C)C (configuration not stated),0.24
COC(=O)C(Cc1c[nH]c2ccccc12)NC(=O)c1cc(O)cc(O)c1 (configuration not stated),-0.92
CCCCOc1ccc(-c2csc(NC(=O)c3cc4cc([N+](=O)[O-])ccc4oc3=O)n2)cc1,-0.44
Cc1ccc(OCC(=O)Nc2ccc3nn(-c4ccc(Cl)cc4)nc3c2)cc1,0.6
COc1ccc(Oc2coc3cc(OC(=O)c4ccc(F)cc4)ccc3c2=O)cc1,-0.15

# Among those listed so far, 8 have a Cl atom.
SMILES,Measles inh
O=C(NCc1ccco1)c1cc(-c2ccc(Cl)cc2)on1,-1.3
O=C(CSc1cn(Cc2ccccc2Cl)c2ccccc12)NC1CCCCC1,1.1
O=C(Nc1ccc(Br)cc1)c1sc2ccccc2c1Cl,-0.33
Cc1cc(NS(=O)(=O)c2ccc(NC(=O)c3ccc(Cl)cc3)cc2)no1,-0.92
COc1ccc(-n2nc(C(=O)NCC(=O)N(C)c3ccc(Cl)cc3)c3ccccc3c2=O)cc1OC,-0.28
Cc1nc(NC(=O)Nc2ccc(Cl)cc2)sc1CC(Cl)(Cl)Cl,-0.11
COC(=O)C1=C(C)NC(=S)N(C(C)=O)C1c1ccc(Cl)cc1 (configuration not stated),1.8
Cc1ccc(OCC(=O)Nc2ccc3nn(-c4ccc(Cl)cc4)nc3c2)cc1,0.6

# The listing continues.
SMILES,Measles inh
CCc1ccc(CNC(=O)CCS(=O)(=O)Cc2ccc(Cl)cc2)cc1,0.09
COc1cc(OC)cc(C(=O)Nc2c3c(nn2-c2cccc(C)c2C)CSC3)c1,-0.06
O=c1oc2ccc(Cl)cc2cc1-c1nc2sc3c(c2c(=O)[nH]1)CCCC3,0.86
Cc1ccc(C)c(NC(=O)CSc2nnc(CNC(=O)c3ccco3)o2)c1,0.26
CCCOC(=O)C1=C(C)NC(=O)NC1c1cc(Br)ccc1OC (configuration not stated),0.46
O=C(Nc1cccnc1)c1c(O)c2c([nH]c1=O)CCCC2,-0.97
O=C(CCc1cn(Cc2ccccc2)c2ccccc12)NCc1ccc2c(c1)OCO2,-0.23
O=C(c1ccc(CS(=O)(=O)c2ccccc2)o1)N1CCOCC1,1.3
CN1C(=O)C(=O)N(c2ccc(I)cc2)C1=O,0.2
Cc1onc(-c2ccccc2Cl)c1C(=O)N1CCN=C1SCc1cccnc1,-0.56
CC1CCCCN1CCNC(=O)c1ccc(CS(=O)(=O)Cc2ccc(Cl)cc2)o1 (configuration not stated),1.5
COc1cccc(-c2cc(C(=O)NC(C)c3ccccc3)no2)c1 (configuration not stated),0.74

# Ordered by the number under Measles inh (ascending): four from the list above
SMILES,Measles inh
COc1cc(OC)cc(C(=O)Nc2c3c(nn2-c2cccc(C)c2C)CSC3)c1,-0.06
CCc1ccc(CNC(=O)CCS(=O)(=O)Cc2ccc(Cl)cc2)cc1,0.09
Cc1ccc(C)c(NC(=O)CSc2nnc(CNC(=O)c3ccco3)o2)c1,0.26
COc1cccc(-c2cc(C(=O)NC(C)c3ccccc3)no2)c1 (configuration not stated),0.74

# (more compounds)
SMILES,Measles inh
COc1cc([N+](=O)[O-])ccc1N1C(=O)C2C(c3ccc(Cl)cc3)OC3(C(=O)c4ccccc4C3=O)C2C1=O (configuration not stated),-0.95
O=C(O)c1ccccc1C(=O)Nc1ccc(N2C(=O)C3C4CCC(C4)C3C2=O)cc1 (configuration not stated),0.09
Cc1ccc(NC2CC(=O)N(c3cccc(C(F)(F)F)c3)C2=O)cc1 (configuration not stated),0.32
CC1=C(C(=O)N(C)C)C(c2ccccc2F)n2c(nc3ccccc32)N1 (configuration not stated),-0.43
O=C1c2cc([N+](=O)[O-])cc3cc([N+](=O)[O-])cc(c23)C(=O)N1c1ccc(S(=O)(=O)Nc2ccc(Br)cc2)cc1,-0.05
Cc1sc2nc3c(C(=O)N4CCCCCC4)cccn3c(=O)c2c1C,-0.9
Cn1c(=O)c2c(nc3sccn32)n(C)c1=O,0.85
C=CCn1c(SCCOc2ccccc2)nc2sc(C)c(C)c2c1=O,-1.3
COc1ccc(CCn2c(SCc3ccc([N+](=O)[O-])cc3)nc3ccc(N4CCOCC4)cc3c2=O)cc1OC,-0.41
O=C1C2=C(Nc3[nH]c(=O)[nH]c(=O)c3C2c2ccc(Cl)cc2)c2ccccc21 (configuration not stated),-0.27
N#Cc1cc(S(=O)(=O)N2CCOCC2)ccc1Cl,0.08
COc1ccc(C(NC(C)=O)c2c(O)ccc3ccccc23)cc1 (configuration not stated),-0.42
O=C(NC1CCN(Cc2ccccc2)CC1)c1ccc2nc3cc(Cl)ccc3c(=O)n2c1,-0.1
Cc1nc2c3ccccc3[nH]c(=O)n2n1,-1.2
O=S(=O)(c1cccc2nonc12)N1CCN(c2ccccc2F)CC1,0.51
CCN(C(=O)c1nn(-c2ccc(C)cc2)c(=O)c2c1c1ccccc1n2C)c1ccc(OC)cc1,1.4
O=C(c1sc2ccccc2c1Cl)N1CCN(CCN2C(=O)c3cccc4cccc(c34)C2=O)CC1,-2.6
Cc1cc2c(cc1C)NC(c1cccc(C(F)(F)F)c1)C1=C(CC(C)(C)CC1=O)N2 (configuration not stated),-0.66
CN(CC(=O)N1CCCc2c1c(=O)oc1ccc(O)cc21)Cc1ccccc1,0.61
O=C(O)c1cc(S(=O)(=O)N2CCOCC2)ccc1Cl,-0.07
COc1ccc(-c2nnc(NC(=O)c3ccc(S(=O)(=O)N4CCc5ccccc5C4)cc3)o2)c(OC)c1,-0.79
CCN(CC)c1ccc(C2C(C(=O)Nc3cc(C)ccn3)=C(C)NC3=C2C(=O)CCC3)cc1 (configuration not stated),-0.93
CCOCCCNC(=O)c1cc(Sc2cccc(Cl)c2)nc2ccccc12,-0.41
O=C(O)c1ccccc1C(=O)n1c(Cc2ccccc2)nc2ccccc21,1.2
COc1ccc(C2CC(c3ccc(Br)s3)Nc3ncnn32)cc1OC (configuration not stated),-0.47
COC(=O)c1sc2nc3n(c(=O)c2c1C)N=C(c1ccc(Cl)s1)CS3,0.39
CC1CCc2nc3ccc4ccccc4c3c(-c3ccccc3O)c2C1 (configuration not stated),1.3
COc1cc(NC(=O)c2ccccc2)c(C(=O)O)cc1OC,-0.52
CC1CCC2C(=O)N(c3ccccc3OCC(=O)c3ccc(Br)cc3)C(=O)C2C1 (configuration not stated),-0.09
O=S(=O)(c1ccccc1)N1CCN(Cc2ccccc2)CC1,2.1
CCc1ccc(-n2c(=O)c3c4c(sc3n(CC(N)=O)c2=O)CCC4)cc1,1.6
CCCOc1cccc(C(=O)Nc2cc(-c3nc4ccccc4o3)ccc2C)c1,0.66
COC(=O)c1ccccc1NC(=O)c1cc(-c2ccc3c(c2)OCO3)on1,0.15
O=C(Nc1ccc(C(=O)Nc2ccc(Cl)cc2)cc1)c1ccccc1,0.02
CSc1ccc(C2CC(=O)Nc3cc4c(cc32)OCO4)cc1 (configuration not stated),-0.27
Cc1cccc(NC(=O)c2ccc(F)c(S(=O)(=O)NCc3cccs3)c2)c1,3
CCCCOc1ccc(N2C(=O)CC(N3CCC(C(N)=O)CC3)C2=O)cc1 (configuration not stated),0.09
O=C(O)C(Cc1c[nH]c2ccccc12)NS(=O)(=O)c1ccc(Cl)cc1 (configuration not stated),0.77
O=C(O)c1cc(C2CC2)[nH]n1,-0.43
COc1ccc(-n2nc3c(c2NC(=O)c2ccco2)CS(=O)C3)cc1 (configuration not stated),-0.45
Cc1ccc(Cl)cc1N1CCN(C(=O)CCCn2c(=S)[nH]c3cc4c(cc3c2=O)OCO4)CC1,1.9
Cc1cc(C(=O)CSc2ncnc3sc4c(c23)CCC4)c(C)n1Cc1ccco1,0.24
O=C(NCc1ccc(F)cc1)c1cc(-c2ccccc2Cl)nc2ccccc12,0.24
COC(=O)C1=C(C)NC2=C(C(=O)CC(C)(C)C2)C1c1ccc(OC(C)=O)c(OC)c1 (configuration not stated),-0.53
CC1(C)CC(=O)C2=C(C1)c1c(ccc3ccccc13)NC2c1ccc(O)c([N+](=O)[O-])c1 (configuration not stated),-0.92
CCOc1ccc(-n2ccnc2SCC(=O)Nc2ccc3c(c2)OCO3)cc1,0.77
COc1ccc2[nH]c(C)c(CN3CC4(C)CC3CC(C)(C)C4)c(=O)c2c1 (configuration not stated),-0.07
COc1ccc(NC2=C(Cl)C(=O)N(c3cc(C)ccc3C)C2=O)cc1,1.9
CCCOC(=O)C1=C(C)NC2=C(C(=O)CC(c3cccs3)C2)C1c1ccc(OC)c(OC)c1 (configuration not stated),-0.34
COc1ccc(-c2noc(CCC(=O)Nc3ccc(Br)cc3C)n2)cc1,0.03
CCOC(=O)c1ccc(NC(=O)CN(c2cc(C(F)(F)F)ccc2Cl)S(C)(=O)=O)cc1,-0.26
Cc1ccc(NC(=O)c2c(-c3ccccc3)c3cc(C)ccc3[nH]c2=O)c(C(=O)c2ccccc2)c1,-0.85
CC1CCC(C(=O)Oc2ccc(Br)cc2)CC1 (configuration not stated),-0.33
CC(=O)Oc1ccc(C2C(C(=O)OC3CCCCC3)=C(C)NC3=C2C(=O)CC(c2ccccc2)C3)cc1 (configuration not stated),-1.1
Cc1cc2c(cc1C)NC(c1ccc(O)cc1O)C1=C(CC(C)(C)CC1=O)N2 (configuration not stated),0.12
Cc1ccc2c(c1)NCC(C(=O)O)O2 (configuration not stated),-0.54
Cc1ccc(C(=O)Nc2nc(-c3cc4cc(Cl)ccc4oc3=O)cs2)cc1,-0.25
CCCNc1ncnc(N)c1[N+](=O)[O-],1.7
CC1=C(C(=O)OCc2ccccc2)C(c2cccs2)N2C(=O)CCSC2=N1 (configuration not stated),1.1
O=[N+]([O-])c1ccc(O)c(C=Nc2cc3c(cc2Br)OCCO3)c1,1.1
Cc1ccc(Nc2nc(-c3ccccc3F)nc3ccccc23)cc1,-1

# Already shown: entries from further up.
SMILES,Measles inh
Cc1ccc(C(=O)Nc2nc(-c3cc4cc(Cl)ccc4oc3=O)cs2)cc1,-0.25
CCCNc1ncnc(N)c1[N+](=O)[O-],1.7
CC1=C(C(=O)OCc2ccccc2)C(c2cccs2)N2C(=O)CCSC2=N1 (configuration not stated),1.1
O=[N+]([O-])c1ccc(O)c(C=Nc2cc3c(cc2Br)OCCO3)c1,1.1

# Not all compounds are listed; count on the stated rates, not on these rows.
